# High-throughput results: PubChem, National Center for Advancing Translational Sciences (NCATS)
# 2A Renilla: FMDV 2A StopGo reporter, Renilla signal | HEK cells with a luciferase reporter of 2A StopGo recoding | Potency, µM (top dose mostly 57.5 µM), for the others: at the highest dose signal change, negative = less light | 120,000 compounds, 0.32% hits; active means well fitted falling curve with a large enough effect; inconclusive means small, poorly fitted or top-dose-only effect; inactive means no such curve, though single readings can be large or run the other way; also: nearly all actives have a fitted effect of over 55% in size; overnight with compound
# StopGo FLuc: lowers the firefly signal of an FMDV 2A StopGo reporter | Potency, µM (top dose mostly 57.5 µM), for inactives: at the highest dose signal change, negative = less light | HEK cells with a luciferase reporter of 2A StopGo recoding | 120,000 compounds, 0.23% hits; active = well fitted falling curve with a large enough effect; inconclusive = small, poorly fitted or top-dose-only effect; inactive = no such curve, though single readings can be large or run the other way; also: nearly all actives have a fitted effect of over 60% in size; overnight with compound
# The depositor's hits bear a star; ? = inconclusive; [ ] = another dose, or the depositor's remark. % is scaled to controls: 0 for no effect and ±100 for the full control effect; potency is read from the fitted curve at half-maximal effect. Some of the compounds tested. The share of hits here may be higher or lower than overall.
molecule,2A Renilla,StopGo FLuc
CC1(C)CC(NC(=O)Nc2ccc(OC(F)(F)F)cc2)CC(C)(C)N1,-14%,-16%
CCCn1nc(C(=O)Nc2nnc(C3CC3)s2)c2ccccc2c1=O,10%,23%
Cc1ccc(NC(=O)C(=O)NCCc2csc(-c3ccc(C(F)(F)F)cc3)n2)cc1C,-9%,22%
CC(=O)C1=C(c2ccc(Cl)cc2)N(C(C)=O)n2c(nnc2C2CCCCC2)S1,-18%,-19%
CCc1ccc2c(c1)-c1ccccc1S(=O)(=O)N2CC(=O)NCc1cccnc1,28%,-5%
CCc1ccc(C(C)NC(=O)Cn2cnc(C#N)n2)cc1 (stereo not given),-7%,-5%
O=C(COc1ccccc1Cl)NCC1(N2CCOCC2)CCCCC1,18%,-27%
Cc1c(S(=O)(=O)N2CCCC2c2ccccc2F)cnn1C(F)F (stereo not given),5%,-5%
COc1cc(OC)c(NC2(c3ccccc3)C(=O)c3ccccc3C2=O)cc1Cl,-12%,-13%
CCN(CC)c1ccc(NC(=O)COc2ccc3c(=O)c(Oc4ccccc4F)c(C)oc3c2)cc1,-4%,-1%
CCc1ccc(/C=N/NC(=O)C(O)(c2ccccc2)c2ccccc2)cc1,18%,12%
CCCCNC(=O)c1cccc(NC(=O)Cc2ccccc2)c1,184%[activator],53%[activator]
Cc1c(C(=O)NCc2ccccn2)sc2ccccc12,31%,186%[activator]
O=C(CSc1nnc(-c2ccco2)n1C1CCCCC1)Nc1ccccc1C(=O)NC1CC1,34%[activator],13%
COc1ccc(N(CC(=O)NCCc2cccc(C)c2)S(=O)(=O)c2c(C)nn(C)c2C)cc1,54%[activator],60%[activator]
Cc1cc(C)cc(C(=O)N2CCN(C(=O)c3cccc4cccnc34)CC2)c1,-17%,-16%
CC(C)=CC(=O)Nc1ccccc1C(C)(C)C,31%,18%
CCCn1c(SCc2csc(-c3ccccc3)n2)nnc1C1CC1,27%,224%[activator]
CN(C)CCCOC(=O)/C=C/c1ccccc1,-2%,0%
Cc1nc2c(cnn2C(C)C)cc1C(=O)Nc1nc(-c2ccc(Cl)cc2)cs1,?,?
O=C(CCS(=O)(=O)c1cc(Br)cc2c1N(C(=O)C1CC1)CC2)Nc1ccc(Br)cc1F,-7%,-2%
CCOc1ccc2c(c1)c(=O)c(S(=O)(=O)c1ccc(CC)cc1)cn2C,38%[activator],-4%
COc1ccc2nc(SC3CC(=O)N(c4ccc(F)cc4)C3=O)nc(C)c2c1 (stereo not given),-9%,-6%
CCCn1c(=O)[nH]c(=O)c2c(C(=O)OCC)cc(-c3cccs3)nc21,15%,0%
CCc1cc2c(CN3CCN(c4ccccc4O)CC3)cc(=O)oc2cc1O,-5%,-4%

# 22 compounds out of the list, ordered by molar mass, largest number first.
molecule,2A Renilla,StopGo FLuc
O=C(CCS(=O)(=O)c1cc(Br)cc2c1N(C(=O)C1CC1)CC2)Nc1ccc(Br)cc1F,-7%,-2%
CCN(CC)c1ccc(NC(=O)COc2ccc3c(=O)c(Oc4ccccc4F)c(C)oc3c2)cc1,-4%,-1%
COc1ccc(N(CC(=O)NCCc2cccc(C)c2)S(=O)(=O)c2c(C)nn(C)c2C)cc1,54%[activator],60%[activator]
O=C(CSc1nnc(-c2ccco2)n1C1CCCCC1)Nc1ccccc1C(=O)NC1CC1,34%[activator],13%
Cc1ccc(NC(=O)C(=O)NCCc2csc(-c3ccc(C(F)(F)F)cc3)n2)cc1C,-9%,22%
CC(=O)C1=C(c2ccc(Cl)cc2)N(C(C)=O)n2c(nnc2C2CCCCC2)S1,-18%,-19%
Cc1nc2c(cnn2C(C)C)cc1C(=O)Nc1nc(-c2ccc(Cl)cc2)cs1,?,?
COc1cc(OC)c(NC2(c3ccccc3)C(=O)c3ccccc3C2=O)cc1Cl,-12%,-13%
CCc1ccc2c(c1)-c1ccccc1S(=O)(=O)N2CC(=O)NCc1cccnc1,28%,-5%
CCc1cc2c(CN3CCN(c4ccccc4O)CC3)cc(=O)oc2cc1O,-5%,-4%
Cc1cc(C)cc(C(=O)N2CCN(C(=O)c3cccc4cccnc34)CC2)c1,-17%,-16%
CCOc1ccc2c(c1)c(=O)c(S(=O)(=O)c1ccc(CC)cc1)cn2C,38%[activator],-4%
O=C(COc1ccccc1Cl)NCC1(N2CCOCC2)CCCCC1,18%,-27%
CC1(C)CC(NC(=O)Nc2ccc(OC(F)(F)F)cc2)CC(C)(C)N1,-14%,-16%
CCc1ccc(/C=N/NC(=O)C(O)(c2ccccc2)c2ccccc2)cc1,18%,12%
CCCn1c(SCc2csc(-c3ccccc3)n2)nnc1C1CC1,27%,224%[activator]
CCCn1nc(C(=O)Nc2nnc(C3CC3)s2)c2ccccc2c1=O,10%,23%
CCCCNC(=O)c1cccc(NC(=O)Cc2ccccc2)c1,184%[activator],53%[activator]
CCc1ccc(C(C)NC(=O)Cn2cnc(C#N)n2)cc1 (stereo not given),-7%,-5%
Cc1c(C(=O)NCc2ccccn2)sc2ccccc12,31%,186%[activator]
CN(C)CCCOC(=O)/C=C/c1ccccc1,-2%,0%
CC(C)=CC(=O)Nc1ccccc1C(C)(C)C,31%,18%

# Further results:
molecule,2A Renilla,StopGo FLuc
Cc1ccc(-c2nc(S(=O)(=O)c3ccc(Cl)cc3)c(N3CCCCC3)o2)cc1,191%[activator],82%[activator]
CC(C)CSc1nc2c(c(=O)n(C)c(=O)n2C)n1Cc1ccccc1Cl,8%,11%
Cn1cc(-c2cc(-c3cnn(C)c3)[nH]n2)cn1,-4%,18%
Cc1ccc(OCCSc2nnc(-c3cccs3)o2)cc1Cl,-13%,-1%
O=C(OCCOc1ccccc1Cl)c1cc(=O)c2ccccc2o1,-5%,12%
CC(C)CCCNC(=O)NC(C)c1ccc(C#N)cc1 (stereo not given),?,7%
CCCn1c(=O)c2sccc2n2c(CCCC(=O)NC3CCC(C)CC3)nnc12 (stereo not given),-1%,-13%
Cc1nn(Cc2ccc(Cl)cc2)c(C)c1NC(=O)c1noc2c1CCc1ccccc1-2,-10%,-2%
Cc1ccccc1OCC(=O)OCC(=O)NC12CC3CC(CC(C3)C1)C2,-12%,-6%
CN(C1CCCCC1)S(=O)(=O)c1ccc2c(c1)c(=O)c(C(=O)NCc1ccc(F)cc1)cn2C,-4%,-15%
COc1ccc(NS(=O)(=O)c2cc(-c3cnc(C4CC4)o3)ccc2C)cc1OC,?,?
O=C(c1ccccc1F)N1N=C(c2ccsc2)CC1c1ccc2nccnc2c1 (stereo not given),26%,21%
COc1cccc(N=Cc2ccc(N(C)C)cc2)c1,-1%,119%[activator]
O=C(Cc1cccc2ccccc12)N/N=C/c1ccsc1,80%[activator],18%
Nc1ccc([N+](=O)[O-])cc1NS(=O)(=O)c1ccc2ccccc2c1,97%[activator],?
O=C(/C=C/c1ccc(F)cc1)NCCCCc1ccccc1,-6%,0%
O=C(O)CC1C(=O)NCCN1CC1CCCCC1 (stereo not given),0%,4%
N#CCSc1n[nH]c2nc3c(c(=O)n12)C1(CCCCC1)Cc1ccccc1-3,-1%,12%
COc1cccc(/C=C(/C#N)C(=O)c2c[nH]c3cccc(C)c23)c1,61%[activator],27%
OCc1nc2ccccc2n1CC(O)COc1ccc(Cl)cc1 (stereo not given),3%,21%
CCOC(=O)c1c(NC(=O)CSc2cn(CCNC(=O)c3ccc(OCC)cc3)c3ccccc23)sc2c1CCCC2,-1%,-10%
Clc1cccc(CNc2ncnc3c2nc2n3CCCC2)c1,16%,4%
COC(=O)[C@H](C(C)C)N(CCCc1cn(Cc2ccc(C)cc2)nn1)S(=O)(=O)c1ccccc1Br,117%[activator],-11%
N#Cc1ccc(OCCOC(=O)c2cccc(Cl)c2)cc1,-5%,-14%
CC(=O)c1cn(CC(=O)N2CCC(C(=O)O)CC2)c2ccccc12,-13%,-10%
COc1cc(NC(=O)N2CCC(NS(=O)(=O)c3ccc(Cl)cc3)CC2)cc(OC)c1,-1%,1%
CC(=O)c1cccc(Nc2cc(C)nc3nc(-c4ccccc4C)nn23)c1,11%,53%[activator]
CCOC(=O)c1cnc2ccc(C(=O)OC)cc2c1Nc1ccc(N2CCOCC2)cc1,-9%,-14%
Cc1cccc(-c2nc(CN3CCCC(C(=O)NCCc4ccc(Cl)cc4)C3)c(C)o2)c1 (stereo not given),?,?
Cc1nn(CC(=O)Nc2ccc3c(c2)nc2n3CCN(C3CCCCC3)C2)c(=O)c2ccccc12,-15%,23%
O=C(CSc1nc2nc[nH]c2c(=O)[nH]1)c1ccccc1,-15%,-2%
COCC(=O)O[C@]1(CCN(C)CCCc2nc3ccccc3[nH]2)CCc2cc(F)ccc2[C@@H]1C(C)C,?,-21%[11.5 µM]
CCCn1nc(C(=O)NCC(C2CC2)N(C)C)c2ccccc2c1=O (stereo not given),-6%,-2%
Cn1nc(C(=O)N2CCOCC2)cc1C(=O)Nc1ccc(F)c(F)c1,-9%,45%[activator]
O=C(CN1CCC(C(=O)NCc2ccco2)CC1)NC1CCCC1,-10%,7%
CN(Cc1ccccc1)CC(C#N)C(O)c1ccncc1 (stereo not given),11%,0%
Cc1cn2c(=O)c(S(=O)(=O)NCCc3ccccc3)c(C)nc2s1,39%[activator],-2%
CCOc1ccc(C(=O)N2CCN(Cc3cc(=O)n4nc(-c5ccccc5Cl)sc4n3)CC2)cc1,-11%,3%
Cc1ccc(CNC(=O)CCc2c(C)nc3nc(C)nn3c2C)cc1,-5%,-8%
C=CCn1c(=O)c2c(nc(-n3nc(C)cc3C)n2CC(C)C)n(C)c1=O,-8%,-3%
Cc1cc(C)c2c(-n3cccc3)nn(CCCC(=O)Nc3ccc(F)cc3C)c2n1,14%,2%
Cc1c(NC(=O)c2ccc(-c3ccc(F)cc3)o2)cccc1-c1nc2ncccc2o1,-5%,-1%
CCCC(=O)Nc1ccc(CNCc2ccc(F)cc2F)cc1,0%,22%
Cc1ccn2c(Nc3ccccc3)c(-c3c[nH]c4ccccc34)nc2c1,-7%,121%[activator]
CCOc1ccc(CCNC(=O)c2cnc3sc(N4CCOCC4)nn3c2=O)cc1,-12%,-19%
CC(=O)Nc1ccc(NC(=O)c2cc(C3CC3)nc3ccccc23)cc1,7%,17%
Cc1ccc(C)c(NC(=O)C2CCCN(S(=O)(=O)Cc3ccccc3Cl)C2)c1 (stereo not given),-7%,-7%
COc1ccc(Cl)cc1S(=O)(=O)N1CCC(c2ccncc2)CC1,90%[activator],-16%
CCCCNC(=S)NC1CCCC(C)C1C (stereo not given),2%[1.06 µM],31%[activator]
COCc1ccc(CNC(=O)CC(C)C)cc1,-21%,9%

# Additional compounds
molecule,2A Renilla,StopGo FLuc
Cc1cccc(NC(=O)CCc2nnc3ccc(N4CCC(C)CC4)nn23)n1,-9%,-1%
O=C(CSc1ncnc2c1sc1cccc(F)c12)NCCN1CCCCCC1,-25%,-9%
CC(=O)c1ccc(N2C(=O)N(Cc3ccc(F)cc3)c3ccccc3S2(=O)=O)cc1,102%[activator],-5%
CCCn1c(=O)c2sc(N3CCCC3)nc2n(CC(=O)Nc2ccccc2OCC)c1=O,7%,12%
O=C(O)c1cncnc1/C=C/c1ccc2ccccc2c1,7%,-47%
CCCc1nc(NCc2ccncc2)c(C#N)c2c1CCCC2,?,?
COc1ccc(NC(=O)CCCc2nnc3n(CCC(C)C)c(=O)c4sccc4n23)cc1Cl,-3%,-12%
CCCn1c(=O)c2c(nc3n2CCN3c2ccc(C)cc2)n(C)c1=O,-7%,-7%
Oc1ccc2c(c1)Oc1ncn3nc(COc4ccccc4)nc3c1C2c1cccnc1 (stereo not given),-6%,-18%
COc1cc(C2=NOC(C(=O)N3CCN(c4ccccc4)CC3)C2)cc(OC)c1OC (stereo not given),4%,11%
COc1cc2ccccc2cc1C(=O)Nc1ccc2oc(-c3ccc(F)cc3)nc2c1,9%,53%[activator]
Cc1oc(-c2cccs2)nc1CSc1nnc(C2CC2)n1C1CC1,3%,25%
O=C(CN1C(=O)c2cccnc2Oc2ccc(Cl)cc21)N1CCN(C2CCCCC2)CC1,-11%,-16%
CCCCn1c(CCC(=O)O)nc2c1c(=O)[nH]c(=O)n2CCC,5%,10%
O=C(Cc1ccccc1)Nc1sc2c(c1C(=O)Nc1ccccc1)CCCCC2,-4%,167%[activator]
Nc1ccc(C(=O)NCC(=O)O)cc1,0%,5%[11.5 µM]
CCOc1ccccc1C(N)=S,-5%,7%
